Compound activity deposited in PubChem BioAssay by National Center for Advancing Translational Sciences (NCATS).
HTT prom inh = inhibits huntingtin promoter activity | AID 1508623 | 0.93% of 48,000 active | HEK293 HTT promoter firefly luciferase reporter (activity 0% = vehicle and -100% = no light), 24 h | Potency, µM (top dose mostly 57.5 µM), without a hit: at the top dose activity change, negative = inhibition, most hits filed as inhibitors; active = well fitted inhibition curve with a large enough effect; inconclusive = small, poorly fitted or top-dose-only effect; inactive = no such curve, though single readings can be large or run the other way; note: nearly all actives have a fitted effect of over 50% in size
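Luminescence was read after Dual-Glo reagent and a 10 min room-temperature incubation. Values were normalized to vehicle (0% activity) and zero RLU (-100% activity). Reporter HEK293 cells had been exposed to compounds (up to 57.5 uM final) for 24 h.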
PMP22 txn prim = PMP22 gene transcription modulation; S16 Pmp22-F2sN Schwann cells (luciferase reporters placed in the Pmp22 gene), FLuc/NLuc coincidence luminescence, 24 h; Potency, µM (doses to about 57.5 µM), for inactives: top-dose activity change, negative = inhibition, hits mostly inhibitors; 2% of 43,000 active; AID 1508649; active = clear falling dose curves in both reporters; inconclusive = both reporters move, but less clearly or upward; inactive = either reporter flat; the % is the NLuc reporter signal; note: % is set by controls: 0 for no effect and ±100 for the full control effect; some results filed as inactive show a strong effect at the top dose
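Reporter cells (S16 Pmp22-F2sN, 500–1,000 per well) exposed to compounds for 24 h, 37C, 5% CO2; lysis with FLuc read after 10 min, then Stop&Glo and NLuc read after 10 min.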
The depositor's hits bear a star; ? = inconclusive; nt = not tested or not shown; [ ] = dose if it differs, or a comment. Potency is the fitted concentration of half-maximal effect. This is a random part of the collection; overall some 2.6% were active at least once.

SMILES	HTT prom inh	PMP22 txn prim
COC(=O)CC1c2cc(OC)c(OC)cc2CCN1C(=O)Nc1ccc(C)cc1Cl (centres undefined)	-4%	-24%
CCOC(=O)c1ccc(-c2ccc(/C=C(\C#N)C(=O)Nc3ccc(C)cc3OC)o2)cc1	-10%	-1%
COC(=O)c1cccc(Nc2c(-c3cc(Br)ccc3O)nc3nc[nH]n23)c1	-7%	-11%
Cc1ccc(NC(=O)c2c(NC(=O)c3ccccc3Cl)sc3c2CCC3)cc1	-18%	-10%
Cc1nn(CC(=O)NCc2ccc(N(C)C)cc2)c(=O)c2nn(-c3ccccc3)c(C)c12	-9%	-16%
CCCC(=O)NC1CC(=O)N(c2ccc3c(c2)OCCO3)C1 (centres undefined)	1%	1%
CCCNC(=O)CCc1c(C)nc2nc(CNC(=O)c3ccccc3)nn2c1C	-10%	-15%
CCOC(=O)CCn1nc(C)c2c(C)n(-c3ccccc3)nc2c1=O	-15%	-2%
COc1ccc(OC)c(NC(=O)Cn2c(=O)n(-c3cccc(C)c3)c(=O)c3c2c2cc(C)ccc2n3C)c1	-10%	-13%
Cc1cc(C)cc(-n2ccn(CC(=O)NCCc3ccccc3)c(=O)c2=O)c1	-4%	2%
CCCCCSc1nnc2c(n1)OC(CC)Nc1ccc(Br)cc1-2 (centres undefined)	-17%	-28%
Cc1cc(C)cc(NC(=O)CSc2oc(-c3cccs3)nc2S(=O)(=O)c2ccc(Br)cc2)c1	-5%	?
Cc1ccc(-n2nc(C(=O)Nc3ccc(Cl)cn3)c3c4ccccc4n(C)c3c2=O)cc1	-6%	-2%
Cc1ccc(OCCCCn2cnc3ccccc32)cc1	-13%	-63%
CC(=O)Nc1ccc(S(=O)(=O)N2CCN(c3ccccc3)CC2)cc1	-27%	-28%
Cc1ccc(-n2c3nc(=O)[nH]c(=O)c-3cc3c(Cl)cccc32)cc1	3%	-26%
CCC(C(=O)NCCc1cc(OC)ccc1OC)n1nc(C)c2sc3ccccc3c2c1=O (centres undefined)	?	?
CN1CCN(C2(CNC(=O)c3ccc(C(C)(C)C)cc3)CCCCC2)CC1	-12%	?
Cc1ccc(S(=O)(=O)c2nc(-c3ccco3)oc2SCc2ccc(F)cc2)cc1	?	?
COC(=O)C(CCSC)NC(=O)Cn1ncc2c([nH]c3ccccc32)c1=O (centres undefined)	5%	12%
CCOc1ccccc1NC(=O)C1CCN(S(=O)(=O)c2cccc3nonc23)CC1	9%	4%
CCc1ccc(Sc2cc(C(=O)NCCCOC(C)C)c3ccccc3n2)cc1	?	?
COC(=O)c1ccc(NC(=O)CC2Nc3cc(C)c(C)cc3NC2=O)cc1 (centres undefined)	25µM*	-16%
Cc1cccc(C(=O)NCC(c2ccc3c(c2)OCO3)N2CCN(c3ccccc3F)CC2)c1 (centres undefined)	?	?
COc1ccccc1N(CC(=O)NCCSCc1ccccc1Cl)S(C)(=O)=O	?	-19%
SMILES	HTT prom inh	PMP22 txn prim
CCOC(=O)c1c(NC(C)=O)c2c3c(sc2n1Cc1cccc(Cl)c1)CCCC3	-28%	?
COc1ccccc1NC(=O)Cn1cc(C(=O)c2ccncc2)c(=O)c2cc(C)ccc21	-22%	-2%
COc1cccc(C(=O)Nc2ccc(C(=O)OCc3cc(=O)n4cc(C)sc4n3)cc2)c1	18%	11%
COc1cccc(-c2nc(S(=O)(=O)c3ccccc3)c(NCc3ccccc3)o2)c1	-6%	?
COc1ccc(S(=O)(=O)N(CC(=O)Nc2cc(C)ccc2OC)Cc2ccccc2)cc1	-39%	?
COc1ccc(Br)cc1CNC(=O)c1nn(-c2ccc(C)cc2)c(=O)c2c1c1ccccc1n2C	-17%	-3%
CCc1ccc(C2c3c(-c4ccccc4O)n[nH]c3C(=O)N2Cc2ccncc2)cc1 (centres undefined)	?	?
CCOC(=O)c1c(C)[nH]c(CCC(=O)Nc2c(Cl)cc(OC)cc2OC)c1C	-22%	?
Cc1ccc(NC(=O)CCN2C(=O)c3ccccc3Sc3ncccc32)cc1	-12%	-7%
CCOc1ccc(S(=O)(=O)c2c[nH]c3ccccc3c2=O)cc1	-25%	13%
Cc1cccc(C(=O)NC2(C(F)(F)F)N=C(c3ccccc3)N(C3CCCCC3)C2=O)c1 (centres undefined)	2%	-14%
CCOC(=O)c1cc(OC(=O)c2cc(OC)cc(OC)c2)n(-c2ccccc2)n1	-3%	-19%
Cc1ccc(Cl)cc1N1CCN(C(=O)CN2C(=O)COc3ccc(S(=O)(=O)N4CCC(C)CC4)cc32)CC1	-13%	-12%
Cc1ccc(S(=O)(=O)NC(=O)NN2CCCCCC2)cc1	8%	nt
COc1ccc(-n2c(SC)nc3sc4c(c3c2=O)CCN(C(C)=O)C4)cc1	-6%	?
CCC1Oc2ccc(Cl)cc2N(CC(=O)NCCc2ccc(Cl)cc2)C1=O (centres undefined)	-16%	-4%
Cc1cc(F)ccc1NC(=O)CS(=O)(=O)c1cccc2nsnc12	8%	-5%
O=C(Cn1c(=O)n(CCCS(=O)(=O)C2CCCCC2)c(=O)c2ccccc21)Nc1ccccc1C(F)(F)F	-5%	?
CCOCCCn1c(=N)c(S(=O)(=O)c2ccc(Cl)cc2)cc2c(=O)n3cccc(C)c3nc21	8%	-28%
COc1ccc(OC)c(-n2nnc3c(sc4nc(C)c(Br)c(C)c43)c2=O)c1	-16%	-18%
Brc1ccc(-c2csc(-c3nc(-c4ccc(Br)s4)cs3)n2)cc1	1%	-14%
CC(C)CC(=O)Nc1ccc(C(=O)OCc2cc(=O)n3nc(C4CCCCC4)sc3n2)cc1	-10%	-68%
CCOC(=O)c1ccc(CN(Cc2ccc(Cl)cc2Cl)S(=O)(=O)c2ccc(F)c(C)c2)cc1	?	-10%
O=C(Nc1ccc(Cl)cc1)c1cc2c(Cl)nc3ccccc3c2s1	3%	9%
CCCCCCCCCCC(CO)CCCCCCCC (centres undefined)	11%	nt

Some of these compounds in order of length of the SMILES, smallest number first.
SMILES	HTT prom inh	PMP22 txn prim
CCC1Oc2ccc(Cl)cc2N(CC(=O)NCCc2ccc(Cl)cc2)C1=O (centres undefined)	-16%	-4%
CCc1ccc(C2c3c(-c4ccccc4O)n[nH]c3C(=O)N2Cc2ccncc2)cc1 (centres undefined)	?	?
COc1ccc(S(=O)(=O)N(CC(=O)Nc2cc(C)ccc2OC)Cc2ccccc2)cc1	-39%	?
Cc1ccc(Cl)cc1N1CCN(C(=O)CN2C(=O)COc3ccc(S(=O)(=O)N4CCC(C)CC4)cc32)CC1	-13%	-12%

New compounds follow:
SMILES	HTT prom inh	PMP22 txn prim
CCOc1ccc(N(CC)C(=O)c2cc3c(=O)oc4ccccc4c3s2)cc1	-7%	?
COc1ccc(NC(=O)C2=C(C)Nc3ncnn3C2c2ccccn2)cc1 (centres undefined)	-12%	6%
CCOc1ccc(CCNC(=O)c2ccc(Cn3c(=O)c4cccn4c4cccnc43)cc2)cc1	-25%	?
COc1ccc(CNC(=O)CN2CCSc3ccccc32)c(OC)c1	-19%	1%
COc1ccccc1NC(=O)CN(C)S(=O)(=O)c1ccc2c(c1)c(=O)n(C)c(=O)n2C	-10%	-11%
Cc1ccc(OCC(=O)N(Cc2ccc(N(C)C)cc2)CC2CCCO2)cc1C (centres undefined)	-8%	-44%
O=C(Nc1ccc2nc(SCC(=O)N3CCOCC3)sc2c1)c1ccccc1Cl	?	-39%
CCN1CCN(c2ncc3c(n2)CC(c2ccccc2O)CC3=O)CC1 (centres undefined)	-15%	?
O=C(CC1N=C2c3ccccc3N=C(SCC(=O)Nc3ccc(F)cc3)N2C1=O)NCc1ccco1 (centres undefined)	?	-72%
CCC(C)NC(=O)CN1C(=O)COc2ccc(S(=O)(=O)N3CCOCC3)cc21 (centres undefined)	-6%	-24%
Cc1ccccc1S(=O)(=O)Cc1ccc(C(=O)N2CCN(c3cccc(Cl)c3)CC2)o1	?	12µM*
Oc1c(C(c2ccccc2)N2CCC3(CC2)OCCO3)sc2nc(-c3ccco3)nn12 (centres undefined)	-8%	54%
Cc1cc2n(n1)CCCN2C(=O)Nc1ccccc1F	5%	-2%
Cc1ccc(NC(=O)CN2C(=O)c3cccnc3Sc3ccccc32)cc1C	36%[activator]	2%
Cc1cc2c(cc1S(=O)(=O)CCC(=O)N1CCCC(C)C1)OCC(=O)N2 (centres undefined)	-14%	-23%
Cc1ccc(Cl)cc1NC(=O)C1CCCN(S(=O)(=O)c2c(C)noc2/C=C/N(C)C)C1 (centres undefined)	-36%	-10%
CC(C)OCCCn1c(=O)c2ccccc2n2c(-c3ccccc3)nnc12	0%	-9%
Cc1cc(C(=O)Nc2c(C)nc3ccccn3c2=O)ccc1[N+](=O)[O-]	-13%	0%
COc1ccc(-c2cn3nc(N4CCCC(C(=O)Nc5cc(C)cc(C)c5)C4)sc3n2)cc1 (centres undefined)	-5%	?
CC1CN(C(=O)Nc2ccc(C(=O)NCc3cccc(F)c3)cc2)c2ccccc2S1 (centres undefined)	-19%	-12%
Cc1c(Cl)cccc1-n1nc(C)c2c(C(=O)NCc3ccccc3)cc(C3CC3)nc21	-22%	2%
COc1cc(NC(=O)Cn2c(=O)cc(C)c3c(C)nn(-c4ccc(C)cc4)c32)cc(OC)c1	-25%	6%
COc1ccc(C(=O)Cn2c(=O)c(-c3cc(C)ccc3NC(C)=O)nc3ccccc32)cc1	-20%	3%
COc1cc2c(cc1OC)C(COc1ccc(F)cc1)N(C(=O)c1ccc(S(=O)(=O)N3CCCC3)cc1)CC2 (centres undefined)	-16%	-17%
CCC1CCCCN1C(=O)CSc1nc2c([nH]c3ccccc32)c(=O)n1-c1cccc(OC)c1 (centres undefined)	?	?

Reprinted from the part before: five compounds, then new ones.
SMILES	HTT prom inh	PMP22 txn prim
Cc1c(Cl)cccc1-n1nc(C)c2c(C(=O)NCc3ccccc3)cc(C3CC3)nc21	-22%	2%
COc1cc(NC(=O)Cn2c(=O)cc(C)c3c(C)nn(-c4ccc(C)cc4)c32)cc(OC)c1	-25%	6%
COc1ccc(C(=O)Cn2c(=O)c(-c3cc(C)ccc3NC(C)=O)nc3ccccc32)cc1	-20%	3%
COc1cc2c(cc1OC)C(COc1ccc(F)cc1)N(C(=O)c1ccc(S(=O)(=O)N3CCCC3)cc1)CC2 (centres undefined)	-16%	-17%
CCC1CCCCN1C(=O)CSc1nc2c([nH]c3ccccc32)c(=O)n1-c1cccc(OC)c1 (centres undefined)	?	?
CCCn1c(=O)c2sccc2n2c(CCCC(=O)N3CCN(c4cccc(C)c4C)CC3)nnc12	-8%	-23%
CC(C)c1ccc(S(=O)(=O)c2cnc(SCC(=O)Nc3ccc(F)cc3F)nc2N)cc1	?	?
COc1ccc(CNC(=O)Cn2c(=O)c3cccn3c3ccccc32)cc1	-9%	-42%
CCCCc1ccc(Nc2ncnc3c2cnn3-c2ccc(C)cc2)cc1	-20%	-3%
O=C(CSc1cn(CC(=O)N2CCOCC2)c2ccccc12)Nc1ccccc1C(F)(F)F	-4%	-6%
COC(=O)c1ccc(NC(=O)CSc2nc3ccc(OC)cc3[nH]2)cc1	0%	0%
COc1ccccc1CNc1ccc(-c2nc(-c3ccccn3)no2)cc1[N+](=O)[O-]	23%	?
COc1cccc2c1cc1c(=O)n(CC(=O)N3CCN(c4ccc(F)cc4)CC3)nc(C)n12	-9%	-19%
O=C(NCc1cccs1)c1nn(-c2ccccc2F)nc1CO	?	-3%
Cc1ccc(-c2nc3cc(NC(=O)Cc4ccc(Cl)cc4)ccc3o2)cc1	10%	-8%
CC(C)c1ccc(NC(=O)CN2C(=O)COc3ccc(S(=O)(=O)N4CCOCC4)cc32)cc1	-1%	-11%
CCN(CC)CCNC(=O)C1CCN(c2cc(C)nc3c(-c4ccc(Cl)cc4)c(C)nn23)CC1	-10%	-3%
CCOc1ccc(CCNC(=O)c2c(C)oc3ncn(CC(C)C)c(=O)c23)cc1OCC	6%	?
COc1cccc(CNC(=O)c2ccc3c(c2)c(C)c(C)n3Cc2ccccc2)c1	9%	?
Cc1ccc(-c2nc3cccnc3s2)cc1NC(=O)C(C)C	3%	?
Cc1oc2ncn(CC(C)C)c(=O)c2c1C(=O)N1CCN(c2ccc(F)cc2)CC1	0%	6%
O=c1c2cnn(-c3ccc(F)cc3)c2ncn1Cc1ccccc1Cl	-9%	-7%
Cc1ccc(-n2nc3c(=O)n(CCCC(=O)NC(C)c4ccccc4)nc(C)c3c2C)cc1 (centres undefined)	-19%	?
CC1(C)S[C@@H]2[C@H](NC(=O)[C@H](N)c3ccccc3)C(=O)N2[C@H]1C(=O)O	7%	nt
CCCSCCCNC(=O)C1CCN(C(=O)c2cc3sccc3n2C)CC1	?	-34%

Taken from above.
`CC1(C)S[C@@H]2[C@H](NC(=O)[C@H](N)c3ccccc3)C(=O)N2[C@H]1C(=O)O` in HTT prom inh reads 7%
`O=C(CSc1cn(CC(=O)N2CCOCC2)c2ccccc12)Nc1ccccc1C(F)(F)F` in PMP22 txn prim reads -6%
`CCOc1ccc(CCNC(=O)c2c(C)oc3ncn(CC(C)C)c(=O)c23)cc1OCC` in HTT prom inh reads 6%
`COC(=O)c1ccc(NC(=O)CSc2nc3ccc(OC)cc3[nH]2)cc1` in PMP22 txn prim reads 0%
`COc1ccccc1CNc1ccc(-c2nc(-c3ccccn3)no2)cc1[N+](=O)[O-]` in HTT prom inh reads 23%
